# Cruzain Triton: qHTS Assay for Promiscuous and Specific Inhibitors of Cruzain (with detergent); purified cruzain, Z-FR-AMC fluorescence, 0.01% Triton; Potency, µM, inactives show max response, negative = inhibition, usual class: inhibitors; 200,000 tested, 0.43% active; Cruzipain (Trypanosoma cruzi), P25779; active = well fitted curve in the direction sought with a large enough effect; inconclusive = small, poorly fitted or top-dose-only effect, or another doubt; inactive = no such curve, though single readings can be large; an effect the other way counts as inactive or inconclusive;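 also: plate controls were neutral wells for no effect and buffer without enzyme for full effect; nearly all actives have a fitted effect of over 40% in size; top concentration of the series not given in the record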
# Target sequence (P25779 123-467 limits assumed): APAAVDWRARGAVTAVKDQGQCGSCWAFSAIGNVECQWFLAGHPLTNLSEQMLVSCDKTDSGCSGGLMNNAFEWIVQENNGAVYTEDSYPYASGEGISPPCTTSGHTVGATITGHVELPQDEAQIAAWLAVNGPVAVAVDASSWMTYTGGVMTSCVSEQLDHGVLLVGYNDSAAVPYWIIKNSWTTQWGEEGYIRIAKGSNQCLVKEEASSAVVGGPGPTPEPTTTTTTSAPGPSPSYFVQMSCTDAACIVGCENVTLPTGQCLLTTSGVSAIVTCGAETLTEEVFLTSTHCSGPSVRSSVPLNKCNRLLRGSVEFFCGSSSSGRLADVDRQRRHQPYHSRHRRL
#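 Z-FR-AMC hydrolysis (2 uM substrate) by cruzain (1.5 nM) monitored kinetically at ex 360/em 450 nm after 15 min room-temperature compound exposure; 0.01% Triton X-100, pH 5.5, 5 mM DTT.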
# NS1 inh: qHTS Assay for Inhibitors of Influenza NS1 Protein Function; S. cerevisiae slowed by influenza A NS1, growth recovery by OD600; Potency, µM (highest dose often 46.1 µM), for the others: at the highest dose activity, positive = more growth; 270,000 tested, 0.4% active; AID 2326, 2010; also: actives are rising curves; nearly all actives have a fitted effect of over 50% in size
#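 Recovery from NS1-induced slow growth read by OD600 in budding yeast switched to galactose assay medium (pH 6.0, -URA) at 1:100 dilution. Compound 23 nl per well; the matching strain lacking NS1 serves as control.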
# Cruzain noTriton: qHTS Assay for Promiscuous and Specific Inhibitors of Cruzain (without detergent); Cruzipain (Trypanosoma cruzi), P25779; purified cruzain, Z-FR-AMC fluorescence, no detergent; Potency, µM, for the others: max response, negative = inhibition, actives largely listed as inhibitors; 200,000 tested, 2.3% active; AID 1476, 2009; active = well fitted curve in the direction sought with a large enough effect; inconclusive = small, poorly fitted or top-dose-only effect, or another doubt; inactive = no such curve, though single readings can be large; an effect the other way counts as inactive or inconclusive;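 also: plate controls were enzyme without inhibitor for no effect and buffer without enzyme for full effect; nearly all actives have a fitted effect of over 40% in size; top concentration of the series not given in the record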
#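 Purified cruzain at 1.5 nM, pre-incubated 15 min with compound at room temperature in 100 mM sodium acetate pH 5.5, 5 mM DTT, 0.00005% Triton X-100. Reaction started with 2 uM Z-FR-AMC; AMC fluorescence increase over 60 s gives rate.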
# MARV entry inh: qHTS for inhibitors of binding or entry into cells for Marburg Virus; 300,000 tested, 1.8% active; AID 540276, 2011; Marburg virus pseudotyped entry inhibition, cell reporter; control for the full effect not named in the record; about a third of the inactives were read at about 46 µM; Potency, µM (highest dose often 37.8 µM), without a hit: top-dose activity change, negative = inhibition, most hits filed as inhibitors; active = well fitted inhibition curve with a large enough effect; inconclusive = small, poorly fitted or top-dose-only effect, or effect the other way; inactive = flat fitted curve, though single readings scatter; tested in HEK293 cells; about a fifth of its hits are not listed in these tables; also: % is scaled to controls: 0 for no effect and ±100 for the full control effect; luciferase read-out
# 2A StopGo: High Throughput Screening for Foot and Mouth Disease Virus Antivirals | human cells with a luciferase reporter of 2A StopGo recoding; control for the full effect not named in the record | Potency, µM (series often up to 57.9 µM), for the others: at the top dose signal change, negative = less light | 410,000 tested, 1.2% active; active = well fitted falling curve with a large enough effect; inconclusive = small, poorly fitted or top-dose-only effect; inactive = no such curve, though single readings can be large or run the other way; tested in HEK293T cells; also: % is scaled to controls: 0 for no effect and ±100 for the full control effect; nearly all actives have a fitted effect of over 45% in size; luciferase light after 4 h
# SARS PLpro yeast: qHTS of Yeast-based Assay for SARS-CoV PLP; S. cerevisiae expressing SARS-CoV PLpro, growth rescue; control for the full effect not named in the record; Potency, µM (doses to about 32.9 µM), for inactives: at the highest dose activity, positive = growth rescue; 330,000 tested, 0.19% active; AID 485353, 2010; also: 0% is about no effect; nearly all actives have a fitted effect of over 55% in size; growth read by luminescence after 48 h
# RE007 growth inh: qHTS Assay for Inhibitors of the HIV-1 protein Vpr. S. pombe RE007 Vpr strain, BacTiter-Glo ATP luminescence, 24 h; control for the full effect not named in the record. Potency, µM (highest dose often 92.2 µM), for inactives: at the highest dose activity change, negative = less growth. 360,000 tested, 0.21% active. AID 651644, 2012; active = well fitted falling curve with a large enough effect; inconclusive = small, poorly fitted or top-dose-only effect; inactive = no such curve, though single readings can be large or run the other way;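 also: % is scaled to controls: 0 for no effect and ±100 for the full control effect; nearly all actives have a fitted effect of over 50% in size; the assay follows cell death caused by Vpr and the record does not say whether a fall means rescue or toxicity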
#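 Fission yeast strain RE007, carrying one chromosomally integrated HIV-1 vpr copy, was seeded at OD 0.01 in PMG+AL medium with 23 nL pinned compound. After 24 h at 30 °C and 99% humidity, viability was read by BacTiter-Glo luminescence.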
# LASV entry inh: qHTS for Inhibitors of binding or entry into cells for Lassa Virus. Lassa virus pseudotype entry inhibition, cell reporter; control for the full effect not named in the record. Potency, µM (highest dose often 37.9 µM), for inactives: at the highest dose activity change, negative = inhibition, most hits filed as inhibitors. 300,000 tested, 1.2% active; active means well fitted inhibition curve with a large enough effect; inconclusive means small, poorly fitted or top-dose-only effect, or effect the other way; inactive means flat fitted curve, though single readings scatter; tested in HEK293 cells; also: % is scaled to controls: 0 for no effect and ±100 for the full control effect; nearly all actives have a fitted effect of over 50% in size; luciferase read-out
# * = called active by the depositor; ? = inconclusive; . = not tested or not shown; [ ] = another dose, or the depositor's remark. Unless noted, calls follow the shape of the dose curve; as a rule, active means well fitted rising curve with a large enough effect; inconclusive means small, poorly fitted or top-dose-only effect; inactive means no such curve, though single readings can be large or run the other way. Potency is read from the fitted curve at half-maximal effect.
SMILES,Cruzain Triton,NS1 inh,Cruzain noTriton,MARV entry inh,2A StopGo,SARS PLpro yeast,RE007 growth inh,LASV entry inh
CCn1c(SCC(=O)NC2CCCC2)nnc1C(C)NC(=O)c1ccccc1Br (configuration not stated),.,-2%,.,2%[46.1 µM],-16%,0%,2%,-1%[46.1 µM]
COc1ccc(N2CCN(C(=O)c3cccn3-c3nnc(N4CCCC4)s3)CC2)cc1,-0.3%,.,2%,.,10%,.,.,-2%[46.1 µM]
COc1ccc(OC)c(-c2csc(NC(=O)C3=COCCO3)n2)c1,.,.,.,0%,4%,-12%,-15%,-10%[46.1 µM]
Cc1cccc(C(=O)NCC(=O)OCC(=O)c2ccc(Cl)s2)c1,.,-5%,.,8%[46.1 µM],-5%,-4%,-5%,18%[46.1 µM]
Cc1ccccc1C(=O)NC(CC(C)C)C(=O)N1CCN(c2ccccc2)CC1 (configuration not stated),.,-2%,.,?,1%,-2%,1%,1%[46.1 µM]
COc1ccc(N2C(=NC(=O)CCC3CCCC3)SC3CS(=O)(=O)CC32)cc1 (configuration not stated),.,0%,.,.,-12%,10%,0%,.
CS(=O)(=O)CCC(C(=O)O)N1C(=O)c2ccc(Oc3ccc(Cl)cc3)cc2C1=O (configuration not stated),.,2%,.,.,-21%,2%,16%,.
Cc1nnc(Nc2ccc(C(=O)NCCO)cc2)c2ccccc12,0.6%,-8%,3%,18%,-7%,4%,-2%,-1%
O=c1c(=NNc2ccccc2Cl)c(=O)c2ccccc12,0.4%,0%,-22%,1%,-69%,-2%,6%,.
COc1cccc(C(=O)OCC(=O)c2c[nH]c3ccccc23)c1O,.,11%,.,25%[46.1 µM],15%,1%,4%,11%[46.1 µM]
Cc1cc([N+](=O)[O-])nn1CCCC(=O)N1CCN(c2ccc(F)cc2)CC1,-0.2%,4%,-6%,-37%,-28%,-9%,1%,-5%
CCc1ccc2ncc3c(-c4ccc(F)cc4)nn(CC(=O)NCc4ccccc4)c3c2c1,-0.6%,.,12%,.,-9%,.,.,-2%[46.1 µM]
c1ccc(C(CN2CCCCC2)c2ccccc2)cc1,.,.,.,-14%,-14%,.,-18%,?
Cc1ccccc1OCCNCC(C)O (configuration not stated),.,2%,.,-5%[46.1 µM],-8%,1%,1%,?
CCOC(=O)C1CCN(CC(=O)Nc2cc(S(=O)(=O)N3CCOCC3)ccc2C)CC1,.,.,.,1%[46.1 µM],-13%,-8%,6%,.
CCCOc1ccc(-c2nnc(N)s2)cc1,-4.5%,-10%,9%,?,47%[activator],-7%,-18%,-19%
COc1cccc2c1C(=N)c1c(O)c3c(c(O)c1C2=O)CC(O)(C(C)=O)CC3OC1CC(N)C(O)C(C)O1 (configuration not stated),.,.,.,0.35µM*,?,.,?,0.63µM*
CCCCC(C(=O)OCC(=O)c1ccc(OC)cc1)N1C(=O)c2ccccc2C1=O (configuration not stated),-7.2%,14%,-6%,-23%,.,-17%,-3%,-11%
Nn1c(SCC(=O)Nc2ccc3c(c2)OCO3)nnc1-c1cccc(Cl)c1,5.8%,3%,-11%,5%,8%,2%,0%,13%
Cc1ccc(C)c(SCC(=O)NCc2ccco2)c1,-5.3%,-14%,-4%,-10%[46.1 µM],-14%,2%,-18%,8%
CS/C(N)=N/N=C/c1c(O)ccc2ccccc12,.,-56%,.,.,15%,-5%,0%,.
C=CCNC(=O)/C=C/c1cccs1,.,.,.,27%[46.1 µM],50%[activator],0%,-10%,?
O=C(CC(=O)Nc1ccccc1C(=O)O)NNC(=O)Cc1ccccc1,.,3%,.,1%[46.1 µM],5%,0%,2%,-10%
Cc1nc(Sc2ccc(Cl)cc2)c(C#N)c(C)c1[N+](=O)[O-],.,-3%,.,0%[14.2 µM],?,1%,-8%,0%

# Part of the list above in order of heavy-atom count, largest number first:
SMILES,Cruzain Triton,NS1 inh,Cruzain noTriton,MARV entry inh,2A StopGo,SARS PLpro yeast,RE007 growth inh,LASV entry inh
COc1cccc2c1C(=N)c1c(O)c3c(c(O)c1C2=O)CC(O)(C(C)=O)CC3OC1CC(N)C(O)C(C)O1 (configuration not stated),.,.,.,0.35µM*,?,.,?,0.63µM*
Nn1c(SCC(=O)Nc2ccc3c(c2)OCO3)nnc1-c1cccc(Cl)c1,5.8%,3%,-11%,5%,8%,2%,0%,13%
O=C(CC(=O)Nc1ccccc1C(=O)O)NNC(=O)Cc1ccccc1,.,3%,.,1%[46.1 µM],5%,0%,2%,-10%
c1ccc(C(CN2CCCCC2)c2ccccc2)cc1,.,.,.,-14%,-14%,.,-18%,?
CCCOc1ccc(-c2nnc(N)s2)cc1,-4.5%,-10%,9%,?,47%[activator],-7%,-18%,-19%

# New compounds follow:
SMILES,Cruzain Triton,NS1 inh,Cruzain noTriton,MARV entry inh,2A StopGo,SARS PLpro yeast,RE007 growth inh,LASV entry inh
COC(CNC(=O)c1ccc2c(c1)nc(C)n2-c1cccc(C)c1)OC,.,7%,.,3%[46.1 µM],-15%,0%,2%,25%[46.1 µM]
O=[N+]([O-])c1ccc(Nc2nc(NC3CCCCC3)nc(N3CCCC3)n2)cc1,.,.,.,?,-3%,-2%,3%,-29%[46.1 µM]
CCOC(=O)c1c(-c2ccccc2)oc2ccc(OCC(N)=O)cc12,.,2%,.,.,-15%,-4%,-5%,.
Cc1c(NC(=O)CN2CCN(C(=O)c3ccco3)CC2)c(=O)n(-c2ccccc2)n1C,1.0%,1%,-4%,0%,-15%,4%,20%,4%
CCC(=NCCCN(C)C)c1c(O)n(-c2ccc(OC)cc2)c(=O)[nH]c1=O,1.5%,-2%,-3%,-14%,-2%,1%,1%,1%
COC(=O)c1ccc(OC(=O)c2cccnc2)cc1,-2.6%,7%,-5%,10%,-7%,16µM*,33%,0%
CCOC(=O)c1cnc2ccc(C)cc2c1NCCc1ccc(OC)c(OC)c1,-11%,.,5%,?,-33%,.,.,-25%[46.1 µM]
O=C(O)CC(Cc1ccc(Cl)cc1)C(=O)Nc1ccccc1 (configuration not stated),.,6%,.,.,1%,3%,6%,.
CN(C)S(=O)(=O)c1cc(NC(=O)CSc2ncc(C(F)(F)F)cc2Cl)ccc1Cl,-9.7%,13µM*,0%,?,28µM*,11%,-18%,?
COc1ccccc1C(=O)N/C(=C\c1ccccc1)C(=O)NCc1ccco1,.,-3%,.,-1%,32%[activator],0%,11%,?
CCOC(=O)c1c(C)sc(-c2c(-c3ccc(OC)c(F)c3)[nH]c3c2c(=O)[nH]c(=O)n3C)c1O,-1.2%,.,?,4%[46.1 µM],-20%,.,.,7%[46.1 µM]
COc1ccc(Cl)cc1NC(=O)CCc1nnc2ccc(N3CCC4(CC3)OCCO4)nn12,.,-12%,.,-7%[46.1 µM],-11%,30%,6%,-23%[46.1 µM]
COc1cc2cnncc2cc1OC,-1.5%,-1%,0%,-3%,18%,0%,1%,-7%
CS(=O)(=O)c1ccc(Cl)c(NC(=O)CSc2nc3ccccc3c(=O)n2Cc2ccco2)c1,.,.,.,3%,?,-1%,5%,2%[46.1 µM]
Cc1ccc(S(=O)(=O)Nc2cnn(-c3ccccc3)c(=O)c2Cl)cc1,.,-5%,.,9%[46.1 µM],12%,-1%,-7%,-3%[46.1 µM]
COc1ccc(CCC(=O)Nc2sccc2C#N)cc1,.,.,.,?,23%,0%,-17%,21%[46.1 µM]
Cc1cccc(NS(=O)(=O)c2ccc(C3CCCCC3)cc2)n1,-4.0%,-97%,0%,-40%,33%[activator],-16%,0%,2%
Cn1c(CSc2ccccc2)c(C#N)c2ccccc21,-4.8%,-58%,-4%,15%,36%[activator],-23%,-6%,?
Cc1ccc(N=Cc2c(O)n(-c3cc(Cl)ccc3N3CCOCC3)c(=O)c3ccccc23)cc1C,-1.4%,22%,6.3µM*,-19%,0%,-2%,5%,-1%
Nc1ccc(S(=O)(=O)NC2(C(F)(F)F)NC(=O)N(c3cccc(Cl)c3)C2=O)cc1 (configuration not stated),-3.1%,.,-7%,26%[46.1 µM],-23%,.,.,-4%[46.1 µM]
CN1CCN(NC(=O)c2ccc(Br)c(S(=O)(=O)N3CCOCC3)c2)CC1,-0.6%,-7%,-8%,-2%,-16%,2%,9%,-2%
CC(C)N(C(C)C)S(=O)(=O)c1ccc(N2CCc3ccccc3C2)nc1,.,-8%,.,?,12%,-10%,8%,-4%
CC(=O)C1(O)C(C)CC2C3CC(F)C4(O)CC(O)CCC4(C)C3CCC21C (configuration not stated),.,.,.,?,-2%,.,-23%,5%[46.1 µM]
Cc1cc(C(=O)Nc2ccc(Br)cc2)cs1,.,3%,.,.,49%[activator],3%,-17%,.
Cc1ccc(NC(=O)CN2CCOCC2)c(Br)c1,.,-5%,.,2%[46.1 µM],32%[activator],-4%,-20%,23%[46.1 µM]
CC(C)Cn1cc(C(=O)NCCCOC(C)C)c2c3ccccc3n(C)c2c1=O,1.9%,-4%,12%,10%,-9%,3%,6%,-4%
CC1CCc2nc(NC(=O)COc3ccc(C(C)(C)C)cc3)sc2C1 (configuration not stated),-3.5%,.,-1%,?,?,.,.,?
CSc1nc(O)c(C2OC(=O)c3ccccc32)c(=O)[nH]1 (configuration not stated),-1.6%,-2%,-2%,3%,3%,13%,5%,7%
CCN(CC)CCC(c1cc(OC)c(OC)c(OC)c1)c1c(O)cc(OC)cc1OC (configuration not stated),.,-3%,.,.,-5%,1%,14%,.
CCOC(=O)C1=C(C)N=C2SC(C(=O)OC)=CC(=O)N2C1c1cccc(OC)c1 (configuration not stated),-15%,14µM*,24%,-13%,-19%,-11%,-22%,-4%
Cc1ccc(CNS(=O)(=O)c2ccc(N3CCCCS3(=O)=O)cc2)cc1,-3.1%,.,4%,.,-24%,.,.,-5%[46.1 µM]
